# ALR inh: blocks human ALR sulfhydryl oxidase activity. P55789. purified ALR, DTT oxidation, H2O2 HRP-luminol luminescence. inhibition, % (concentration not given with the values). hit rate 3.8% among 290,000;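 active = mean and each replicate at 75% or more; inconclusive = only one of the two met; inactive = neither met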;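 note: stock transfer was 7.5 nL into about 7.5 µL; 0% = neutral wells and 100% = wells with inactivated enzyme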
# Target sequence (P55789 whole entry, looked up): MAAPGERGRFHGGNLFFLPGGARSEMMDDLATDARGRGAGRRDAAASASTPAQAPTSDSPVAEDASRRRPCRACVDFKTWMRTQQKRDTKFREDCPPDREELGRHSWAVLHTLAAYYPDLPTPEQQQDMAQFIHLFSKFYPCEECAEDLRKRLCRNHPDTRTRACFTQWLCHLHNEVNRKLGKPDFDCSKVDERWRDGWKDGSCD
# MLL AF4-AF9 inh: MLL-AF4/AF9 protein interaction inhibition. inhibition, % at 10 µM. P42568. AID 651704. hit rate 0.47% among 350,000. AlphaScreen, biotin-AF4 peptide binding to FLAG-AF9;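 active = every replicate reaching a set inhibition limit, whatever the replicate mean, cut at about 25% in these data; inconclusive = mean inhibition reaches that limit but some replicates miss it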;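 note: 0% = plate neutral control median and 100% = total signal loss; the record names both 10 and 1 µM as test concentration; the first replicate is given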
# Target sequence (P42568 whole entry, looked up): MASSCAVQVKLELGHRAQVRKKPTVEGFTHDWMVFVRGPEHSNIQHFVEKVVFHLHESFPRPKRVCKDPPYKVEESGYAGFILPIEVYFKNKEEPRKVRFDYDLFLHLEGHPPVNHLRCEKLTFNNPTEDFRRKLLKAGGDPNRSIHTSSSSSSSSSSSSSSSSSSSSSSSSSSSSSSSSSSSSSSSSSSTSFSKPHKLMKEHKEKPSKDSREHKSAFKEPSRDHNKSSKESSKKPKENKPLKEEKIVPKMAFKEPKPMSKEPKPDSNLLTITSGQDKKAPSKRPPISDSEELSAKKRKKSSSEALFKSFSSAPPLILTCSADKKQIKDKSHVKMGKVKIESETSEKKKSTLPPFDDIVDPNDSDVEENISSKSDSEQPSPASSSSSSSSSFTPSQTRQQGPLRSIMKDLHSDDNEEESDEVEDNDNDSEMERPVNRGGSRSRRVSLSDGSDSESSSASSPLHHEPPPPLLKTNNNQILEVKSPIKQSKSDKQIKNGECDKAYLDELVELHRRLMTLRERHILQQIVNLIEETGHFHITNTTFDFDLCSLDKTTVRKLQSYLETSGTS
# Ecoli growth: blocks Escherichia coli growth | OD600, 23 h; stronger effect = lower value | OD600 absorbance (no concentration beside the values) | hit rate 0.21% among 330,000;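 active = OD600 absorbance below the run mean of sample wells minus 3.6 SD, in any replicate, cut at about 0.56 in these data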;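 note: stock transfer was 300 nL into about 60 µL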
# FGF22 binding: shifts melting point of recombinant human FGF22. Q9HCT0. hit rate 1.5% among 340,000. calls only at 9.99 µM. recombinant FGF22 thermal shift, SYPRO orange fluorescence; percent of sucrose octasulfate shift, DMSO zero;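 active = melting point raised past a set limit in the mean and every replicate; inconclusive = no clear call; three in four hits are not shown here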
# Target sequence (Q9HCT0 whole entry, looked up): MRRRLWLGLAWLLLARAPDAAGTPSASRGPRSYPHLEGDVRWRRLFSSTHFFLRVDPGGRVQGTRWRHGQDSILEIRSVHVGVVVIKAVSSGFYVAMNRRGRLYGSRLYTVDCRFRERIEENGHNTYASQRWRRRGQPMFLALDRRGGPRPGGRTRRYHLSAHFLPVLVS
# HNF4A DNA FP: change in binding of human HNF4 alpha to DNA; hit rate 0.3% among 360,000; activity change, % at 10 µM; HNF4a-FITC DNA binding, fluorescence polarization, 1 h; in the data active = activity change above about 30%, passing the limit was not always enough;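 note: controls were the assay level and a saturating level of protein; the project sought stronger binding though the title names inhibitors; some compounds called inactive have numbers as strong as hits; positive values seem to mean higher polarization but the record does not say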
# Vif TR-FRET: HIV-1 Vif–A3G interaction blockers – biochemical, TR-FRET, GST-Vif 1-94, biotin-A3G peptide, dose response retest, primary screen (AID 1117319) | TR-FRET GST-Vif / biotin-A3G peptide binding; higher % means a stronger effect; test concentration not given here; strong numbers were not always called active | inhibition, %; hits with a dose series show IC50 in µM | hit rate 0.57% among 260,000;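 active = above the screen mean plus three standard deviations and confirmed in dose response; inconclusive = results disagree or hit not tested in dose response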;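 note: Vif residues 1-94 fused to GST binding biotinylated APOBEC3G peptide 110-148; 0% = full assay without inhibitor and 100% = GST in place of GST-Vif; retest series ran down from 100 µM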
# Ecoli rRNA inh: selective bacterial rRNA inhibition in E. coli | E. coli WT GFP vs humanized-ribosome RFP mutants, fluorescence, 24 h; stronger effect = lower value; DMSO median 0, no signal -100 | GFP signal change (wild-type ribosome), % (test concentration not listed) | hit rate 1.6% among 350,000;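 active = significant combined selectivity score with lowered wild-type GFP, culture density cut under 30%, mutant RFP and density less affected; inactive = any of these conditions unmet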; note: one replicate is shown; some compounds called inactive have numbers as strong as hits
# Ecoli rRNA inh OD600: also measured in Ecoli rRNA inh; calls as there; OD600 change, %; measured here: OD600 growth;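 optical density of the mix in the first replicate; 0 = DMSO median and -100 = no signal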
# Ecoli rRNA inh RFP: also measured in Ecoli rRNA inh; calls as there; RFP signal change, %; measured here: RFP humanized mutant strains;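 first replicate; 0 = DMSO median and -100 = no signal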
# The depositor's hits bear a star; i = inactive; ? = inconclusive; . = not tested or not shown; & = joins results of further samples.
SMILES,ALR inh,MLL AF4-AF9 inh,Ecoli growth,FGF22 binding,HNF4A DNA FP,Vif TR-FRET,Ecoli rRNA inh,Ecoli rRNA inh OD600,Ecoli rRNA inh RFP
COc1ccc(CCNC(=O)/C=C/c2ccc(OC)c(S(=O)(=O)N3CCOCC3)c2)cc1,19,7.2,0.72,i,6.5,.,-9,-12,-3.2
O=C(CCCc1ccccc1)N=C1SC2CS(=O)(=O)CC2N1c1ccccc1F (stereo not drawn),-1,-2.8,0.71,i,0.4,.,1,-1,-1.6
Cc1cnc(C(=O)OCC(=O)N2CCc3ccccc32)cn1,-4,-3.0,0.68,i,1.8,.,7,6,2.3
CC1=C(C(=O)OCC2CCCO2)C(c2ccc(Cl)c(Cl)c2)NC(=O)N1 (stereo not drawn),3,0.6,0.66,i,3.6,-9%,-19,-30,-3.8
O=C(N[C@H]1CC[C@H](CC(=O)N2CCc3ccccc3C2)O[C@@H]1CO)C1CCOCC1,.,-14,.,i,.,.,2,-3,0.7
O=c1c2c(n3cnnc3n1C1CCCCC1)-c1ccccc1CC21CCCCC1,-5,.,0.69,.,-3.0,21%,.,.,.
CO[C@H]1CN(C)C(=O)c2ccc(NC(=O)Nc3ccccc3)cc2OC[C@H](C)N(C(=O)Nc2c(C)noc2C)C[C@H]1C,.,1.8,.,i,.,.,4,2,-1.9
O=C(NCCC(=O)N1CCN(c2ccccn2)CC1)c1ccc(Br)cc1,-1,-4.7,0.68,i,0.0,-10%,1,3,-3.2
C[C@H]1CN([C@@H](C)CO)C(=O)CCCn2nncc2CO[C@H]1CN(C)C(=O)CCCN(C)C,.,-5.2,.,i,.,.,-1,6,0.1
O=[N+]([O-])c1ccccc1S(=O)(=O)N1CCN(CC2CC3C=CC2C3)CC1 (stereo not drawn),-2,5.9,0.69,.,0.1,.,-28,-14,12
COc1ccc2oc(=O)c(N3C(=O)c4ccccc4C3=O)cc2c1,6,-4.6,0.7,i,2.0,-12%,12,13,0.0
C[C@H](NC(=O)C[C@H]1CC[C@H](NC(=O)C2CC2)[C@@H](CO)O1)c1ccccc1,.,2.9,.,i,.,.,1,-6,0.8
C[C@@H]1CCCCO[C@@H](CN(C)C(=O)c2ccncc2)[C@H](C)CN([C@H](C)CO)C(=O)c2cc(NC(=O)Cc3ccccc3)ccc2O1,.,5.9,.,i,.,.,2,2,-3.1
COc1ccc(OC)c(CNC(=O)C2CCCN(S(=O)(=O)N3CCC(C)CC3)C2)c1 (stereo not drawn),-3,3.5,0.68,i,3.2,.,-5,-12,-0.9
CC(C)CC#Cc1ccc2c(c1)O[C@H](CN(C)C(=O)c1ccccn1)[C@@H](C)CN([C@H](C)CO)S2(=O)=O,.,2.8,.,i,.,.,-6,-5,4.3
C[C@H]1CN([C@@H](C)CO)C(=O)c2cc(NC(=O)Nc3ccc(C(F)(F)F)cc3)ccc2O[C@H]1CN(C)Cc1ccc(Cl)c(Cl)c1,.,0.1,.,i,.,.,-1,0,-0.3
Cc1ccc(-c2csc(N/N=C/c3ccco3)n2)c(C)c1,-7,.,.,.,-2.6,22%,.,.,.
CC(Oc1ccc(Cl)cc1)C(=O)NNC(=S)NC(=O)c1ccco1 (stereo not drawn),98*,-3.2,0.68,i,1.5,.,-47,-74,-22
Cc1cc(NC(=O)Nc2cccc(Cl)c2)no1,.,0.3,.,i,2.6,-1%,.,.,.
CCOC(=O)C1CCN(S(=O)(=O)C(F)(F)c2nc3ccccc3s2)CC1,-29,-1.2,0.73,i,-0.9,7%,-19,-16,-2.0
COC(=O)C1CCN(C(=O)c2ccc(Cl)c(S(=O)(=O)NCc3cccnc3)c2)CC1,-3,.,0.72,.,2.9,1%,.,.,.
CCCNC(=O)N1C[C@H](C)[C@@H](OC)CN(C)C(=O)c2ccc(NS(=O)(=O)CC(F)(F)F)cc2OC[C@H]1C,.,-1.2,.,i,.,.,0,0,0.5
CSc1nc(Cl)cc(Nc2ccccc2N)n1,4,-5.8,0.7,i,4.6,6%,-23*,-19*,0.5*
CCOC(=O)N1CCN(S(=O)(=O)N2CCCC(C(=O)NCCc3ccc(C)cc3)C2)CC1 (stereo not drawn),1,0.4,0.7,i,-1.7,.,17,12,15
C=C(C)CN=C1NN=C(c2cc(C)n(-c3ccc(C)cc3)c2C)CS1,-15,.,0.69,.,3.7,?,.,.,.
Cc1ccc(CC(C(=O)O)C(C)C(=O)Nc2ccc(F)cc2)cc1 (stereo not drawn),11,-4.2,0.69,i,-1.9,-4%,7,4,-0.4
C[C@@H]1CN([C@H](C)CO)C(=O)c2cccc(NC(=O)Nc3ccc4c(c3)OCO4)c2O[C@@H]1CN(C)S(=O)(=O)c1ccc(Cl)cc1,.,2.5,.,i,.,.,-4,-7,-4.2
COc1ccc2cc(S(=O)(=O)N3CCCC3)ccc2c1,-8,-5.4,0.65,i,0.3,.,-3,-19,2.6
CCCNC(=O)N1C[C@@H](C)[C@H](OC)CN(C)C(=O)c2cc(NS(C)(=O)=O)ccc2OC[C@@H]1C,.,-3.9,.,i,.,.,-1,0,1.2
Cc1cccn2c(=O)c(C=O)c(N3CC(C)OC(C)C3)nc12 (stereo not drawn),-16,-3.2,0.65,.,0.1,-1%,12,3,2.9
COc1ccc(CN2CCN(C(=O)Cn3c(=O)oc4cc(Cl)ccc43)CC2)c(OC)c1OC,1,3.1,0.65,i,2.2,4%,3,-2,-0.4
C[C@@H]1CN([C@H](C)CO)C(=O)c2cccc(NC(=O)Nc3ccc4c(c3)OCO4)c2O[C@H]1CN(C)C(=O)Nc1cccc2ccccc12,.,3.1,.,i,.,.,-2,3,-2.1
Cc1cc(/C=N/n2cnnc2)c(C)n1-c1cc(Cl)ccc1Cl,3,.,.,.,1.1,?,.,.,.
CCCCN1C(=O)C(O)(CC(=O)c2ccco2)c2cc(Br)ccc21 (stereo not drawn),-8,-0.4,0.68,i,2.0,22%,-14,-27,-7.5
C[C@H](CO)N1C[C@H](C)[C@@H](CN(C)CC2CCCCC2)Oc2c(NC(=O)c3ccc(-c4nccs4)cc3)cccc2C1=O,.,0.0,.,i,.,.,7,-2,-0.3
O=C(C[C@@H]1C[C@@H]2c3cc(NC(=O)CC4CC4)ccc3O[C@@H]2[C@H](CO)O1)NCc1ccncc1,.,0.3,.,i,.,.,3,0,0.7

# Reprinted from the results shown for reference:
SMILES,ALR inh,MLL AF4-AF9 inh,Ecoli growth,FGF22 binding,HNF4A DNA FP,Vif TR-FRET,Ecoli rRNA inh,Ecoli rRNA inh OD600,Ecoli rRNA inh RFP
C[C@H](CO)N1C[C@H](C)[C@@H](CN(C)CC2CCCCC2)Oc2c(NC(=O)c3ccc(-c4nccs4)cc3)cccc2C1=O,.,0.0,.,i,.,.,7,-2,-0.3
O=C(C[C@@H]1C[C@@H]2c3cc(NC(=O)CC4CC4)ccc3O[C@@H]2[C@H](CO)O1)NCc1ccncc1,.,0.3,.,i,.,.,3,0,0.7

# (more compounds)
SMILES,ALR inh,MLL AF4-AF9 inh,Ecoli growth,FGF22 binding,HNF4A DNA FP,Vif TR-FRET,Ecoli rRNA inh,Ecoli rRNA inh OD600,Ecoli rRNA inh RFP
Cn1c(=O)[nH]c(N)c(Br)c1=O,.,-4.8,0.68,i,1.4,-2%,14,11,-1.8
O=C(Oc1ccc2c(c1)OCO2)C12CC3CC(CC(C3)C1)C2,-23,-7.5,0.68,i,-2.5,11%,13,3,0.9
CN(C)S(=O)(=O)c1ccc(C(=O)NNC(=O)c2ccccc2-n2cccc2)cc1,2,1.1,0.68,i,1.5,-11%,21,9,4.4
COC(=O)C(C)Sc1nc2c(c(=O)n(C)c(=O)n2C)n1Cc1cccc(C)c1 (stereo not drawn),.,.,0.75,.,1.2,-6%&17%,.,.,.
CSCc1cc(N(C)C)nc(SCc2ccc(Cl)c(Cl)c2)n1,35,-55,0.71,i,0.6,1%,-15,-45,51
Cc1ccc(C)c(C(=O)COC(=O)c2ccc(Br)o2)c1,-9,.,0.67,.,0.7,?,.,.,.
C[C@@H]1CN([C@H](C)CO)C(=O)CCCn2cc(nn2)CO[C@@H]1CN(C)S(=O)(=O)c1ccc(C#N)cc1,.,0.7,.,i,.,.,3,4,-0.7
C[C@@H]1CN([C@@H](C)CO)C(=O)c2cc(Br)cnc2O[C@@H]1CN(C)C(=O)C1CCOCC1,.,3.2,.,i,.,.,5,2,-0.1
CCC(=O)N(C)C[C@@H]1Oc2cc(Br)ccc2S(=O)(=O)N([C@@H](C)CO)C[C@@H]1C,.,-1.1&-3.2&-2.7,.,i,1.1,.,7&2,-6&-5,1.9&0.9
CC(C)[C@H](NC(=O)C1CCN(S(=O)(=O)c2ccc(F)cc2)CC1)C(=O)N1CCCCCC1,4,-0.8,0.63,i,-2.3,.,0,9,-2.7
CC(C)OCCCNC(=O)c1ccc(C2SCC(=O)N2Cc2ccco2)cc1 (stereo not drawn),41,-1.8,0.73,i,-3.7,11%,1,10,-1.6
COc1ccc(CCNC(=O)CSc2n[nH]c(N)n2)cc1OC,-3,3.9,0.67,i,-1.3,.,3,9,-1.6
CCNC(=O)C1(C)CCCN(Cc2csc3ccccc23)C1 (stereo not drawn),.,0.9,.,i,-1.4,.,-20,-23,-0.8
Cn1c(N2CCOCC2)c(C#N)c2ccccc21,6,0.1,0.61,i,6.0,19%,-5,-11,-0.9
O=S(=O)(c1ccc(F)cc1)N1CC[C@@H]2[C@@H](CO)Nc3ccc(C#Cc4cccc(F)c4)cc3[C@@H]21,.,3.0,.,i,.,.,0,11,-0.6
COc1cccc(S(=O)(=O)N2CCCCN3[C@H](CO)[C@@H](c4ccc(C#CC5CC5)cc4)[C@@H]3C2)c1,.,-5.7,.,i,.,.,1,2,4.2
CN(C)c1ccc(Nc2ncnc3ccc(Br)cc23)cc1,.,26*,0.68,i,3.4,-1%,-15,-19,-5.2
CCC1NC(=O)c2cc3ccccc3cc2-n2c1nc1cc(C)cc(C)c1c2=O (stereo not drawn),.,-0.4,.,.,-0.6,.,-3,-5,-5.5
COc1ccc(NC(=O)Nc2ccc3c(c2)C(=O)N([C@H](C)CO)C[C@@H](C)[C@@H](CN(C)C(=O)Nc2c(C)noc2C)O3)cc1,.,-4.7,.,i,.,.,6,9,1.0
CO[C@@H]1CN(C)C(=O)c2ccc(NS(=O)(=O)c3ccc(Cl)cc3)cc2OC[C@H](C)N(C)C[C@H]1C,.,-1.6,.,i,.,.,1,-3,1.4

# Six compounds out of the list, arranged by length of the SMILES, rising:
SMILES,ALR inh,MLL AF4-AF9 inh,Ecoli growth,FGF22 binding,HNF4A DNA FP,Vif TR-FRET,Ecoli rRNA inh,Ecoli rRNA inh OD600,Ecoli rRNA inh RFP
CN(C)c1ccc(Nc2ncnc3ccc(Br)cc23)cc1,.,26*,0.68,i,3.4,-1%,-15,-19,-5.2
CCNC(=O)C1(C)CCCN(Cc2csc3ccccc23)C1 (stereo not drawn),.,0.9,.,i,-1.4,.,-20,-23,-0.8
CCC1NC(=O)c2cc3ccccc3cc2-n2c1nc1cc(C)cc(C)c1c2=O (stereo not drawn),.,-0.4,.,.,-0.6,.,-3,-5,-5.5
COc1cccc(S(=O)(=O)N2CCCCN3[C@H](CO)[C@@H](c4ccc(C#CC5CC5)cc4)[C@@H]3C2)c1,.,-5.7,.,i,.,.,1,2,4.2
O=S(=O)(c1ccc(F)cc1)N1CC[C@@H]2[C@@H](CO)Nc3ccc(C#Cc4cccc(F)c4)cc3[C@@H]21,.,3.0,.,i,.,.,0,11,-0.6
COc1ccc(NC(=O)Nc2ccc3c(c2)C(=O)N([C@H](C)CO)C[C@@H](C)[C@@H](CN(C)C(=O)Nc2c(C)noc2C)O3)cc1,.,-4.7,.,i,.,.,6,9,1.0

# High-throughput results as filed in PubChem BioAssay.

# This is a subset (hit frequency here may not be typical).
